# Screening results: PubChem, National Center for Advancing Translational Sciences (NCATS)
# ClpP mod – qHTS Assay for Activators of ClpP; ATP-dependent Clp protease proteolytic subunit (Bacillus subtilis (strain 168)), P80244; purified B. subtilis ClpP, FRET peptide cleavage, 20 min; Potency, µM (series often up to 57.5 µM), without a hit: top-dose activity change, negative = active; hit rate 1.9% among 340,000; AID 651965, 2013; active = well fitted falling curve with a large enough effect; inconclusive = small, poorly fitted or top-dose-only effect; inactive = no such curve, though single readings can be large or run the other way; also: the source files actives as falling curves though it sought activators and does not explain the sign; nearly all actives have a fitted effect of over 65% in size; many hits overshoot -100%
# Target sequence (P80244 whole entry, looked up): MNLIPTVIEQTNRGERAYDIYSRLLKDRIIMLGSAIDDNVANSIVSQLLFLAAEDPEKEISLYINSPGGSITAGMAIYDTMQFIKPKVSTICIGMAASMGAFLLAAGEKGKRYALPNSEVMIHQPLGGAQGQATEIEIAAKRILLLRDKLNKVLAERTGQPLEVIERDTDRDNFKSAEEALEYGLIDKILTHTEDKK
#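 FRET quenching reversal measured ClpP activation: 10 microg/mL B. subtilis ClpP at pH 8 with the FRET-FV decapeptide, read at 430 nm after 320 nm excitation. The 20-min minus 0-min signal was scaled between DMSO/no-enzyme wells and ADEP (5.8 microM final).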
# * marks the source's active call; other numbers are inactive results; u = inconclusive. Potency is read from the fitted curve at half-maximal effect. Only part of the results is shown; count on the stated rates, not on these rows.
SMILES,ClpP mod
O=C(Nc1ccc(F)c(Cl)c1)c1ccc2sc([C@H]3C[C@H](O)[C@@H](CO)O3)nc2c1,-0.6%
COc1cccc(-c2cnc(C(O)c3ccccc3)[nH]2)c1 (stereo not drawn),-0.8%
COC(=O)[C@@]12C[C@@H](CC(=O)N3CCCCC3)C(=O)N(Cc3ccco3)C1=CCC(C)(C)C2,0.5%
COc1ccc(C(O)c2nc(-c3cccc(NC(C)=O)c3)cs2)cc1 (stereo not drawn),-5.2%
Cc1cc(F)ccc1-c1cc(C(=O)NCc2cccs2)[nH]n1,0.4%
CCCc1nc2ccc(C)cn2c1Cc1cccc(F)c1,5.0%
CC(C)=CCC[C@H](C)C[C@@H]1Cc2[nH][nH]c(=O)c2[C@@H](c2ccc(F)cc2)O1,2.4%
CCOCCC(=O)Nc1ccc2c(c1)c(=O)n(C)n2C/C=C/c1ccccc1,4.2%
O=C(NCCN1CCC(n2c(=O)[nH]c3ccccc32)CC1)c1ccc(OC(F)(F)F)cc1,1.4%
CSc1ccc(CN2CCC2(C)C(=O)NC2CCc3ccccc32)cc1 (stereo not drawn),-11%
Cc1cccc(C)c1NC(=O)C1(C)CN(S(C)(=O)=O)CC(=O)N1Cc1cccc(F)c1 (stereo not drawn),0.9%
Cc1ccc(S(=O)(=O)N2CCN(c3nc(-n4ccnc4)nc4ccccc34)CC2)cc1,u
CC(C)(C)n1nnnc1C(c1cc2ccccc2o1)N(CCC#N)Cc1ccccc1 (stereo not drawn),-2.0%
O=C(CC[C@H]1O[C@@H](n2cnc3c(NC(=O)c4ccccc4)ncnc32)[C@H](O)[C@@H]1O)NCc1nc2ccccc2[nH]1,1.5%
NC(Cc1ccccc1)c1csc(Nc2cc(Oc3ccccc3)ncn2)n1 (stereo not drawn),-7.4%
COc1cccc(/C=C/c2nc3ccccc3nc2/C=C/c2cccc(OC)c2OC)c1OC,-2.0%
CCCN1CCC(=O)N(CCC#N)CC1,0.3%
COc1ccc(-c2ccc(C(=O)Nc3ccc(OC)nc3)c3occc23)c(C)c1,35µM*
COc1ccccc1Cc1c(-c2ccc(OC)c(OC)c2)nc2c(Cl)cc(C(F)(F)F)cn12,u
C(=C\c1c[nH]c2ccccc12)/c1nccc2ccccc12,-9.4%
C=CCn1c(Cn2c(-c3cnccn3)nc3ccccc32)nc2ccccc21,-6.8%
NCCCN(Cc1ccc(Cl)c(Cl)c1)c1ccccn1,-21%
CN(C)Cc1csc(NC(=O)Nc2ccccc2Oc2ccccc2)n1,-2.5%
COCCCn1cc(CN2CC(N3CCCCC3)CS2(=O)=O)nn1 (stereo not drawn),0.7%
CN(C)c1ccc(/C=C/c2sc3ccccc3[n+]2C)cc1,0.9%
CC(=O)c1cccc(-c2ccnc3c2CC(C(=O)NCc2ccccc2)O3)c1 (stereo not drawn),-2.9%
COc1ccc(-c2ccc(C(=O)Nc3ccccc3)c3occc23)c(C)c1,u
COC(=O)C[C@@H]1CC[C@@H](NS(=O)(=O)c2ccc(F)cc2)[C@@H](CO)O1,-0.4%
C[n+]1cccc(Br)c1,-1.3%
COc1ccc(CCNC(=O)Nc2ccc3c(c2)c(=O)n(C)n3Cc2ccc(F)cc2)cc1OC,4.4%
O=S1(=O)C[C@H](N2CCC(Cc3ccccc3)CC2)[C@@H](COCc2ccccc2)N1,-1.2%
C[n+]1ccc(/C=C/c2ccc3c(c2)OCO3)c2ccccc21,-1.0%
CC(=O)C1CN(S(=O)(=O)c2ccc(C)cc2)C(c2ccccc2)CC1C (stereo not drawn),0.4%
CCCCCCCCCCCCCCCC(C)C1=NCCN1 (stereo not drawn),-6.9%
Cc1c(C)n(CC(O)CSc2ccccc2)c2ccccc12 (stereo not drawn),-0.9%
O=C(C[C@H]1CC[C@H]2[C@@H](COC[C@@H](O)CN2Cc2cc(F)ccc2F)O1)NCc1ccc(Cl)cc1,-1.0%
Cc1ccc(S(=O)(=O)Nc2ccc(Nc3nccn4c(-c5cccc(OC(F)(F)F)c5)cnc34)cc2)cc1,32µM*
CCc1nc2c(OCC(=O)c3ccc(Cl)cc3Cl)cccn2c1N(C=O)Cc1ccc(OC)cc1,-6.5%
Cc1ccccc1-c1cc2nc(NCc3ccncc3)n(C)c(=O)c2s1,-6.2%
COc1ccc(-c2cc(C(=O)Nc3ccc(NC(C)=O)cc3)[nH]n2)c(C)c1,5.6%
COc1ccc(C(=O)N2CCC(C)(C(=O)NS(=O)(=O)C3CC3)C2)c(OC)c1 (stereo not drawn),-0.8%
Cc1ccccc1S(=O)(=O)NC(=O)C1(C)CCN1C(=O)c1cccc(F)c1 (stereo not drawn),0.4%
CC1(Cc2ccc(OC(F)(F)F)cc2)C(=O)Nc2ccc(S(=O)(=O)NC3CCCCC3)cc21 (stereo not drawn),1.4%
CC(=O)Nc1cccc(-c2cc(NC=O)c3ncc(-c4ccc(F)c(Cl)c4)n3c2)c1,u
CCCC(=O)N1CCC1(C)C(=O)NS(=O)(=O)c1cccs1 (stereo not drawn),4.5%
Nc1ccc(/C=C/c2nccc3ccccc23)cc1,1.2%
CCC(=O)N1CCCC(C)(C(=O)Nc2ccc(OC(F)F)cc2)C1 (stereo not drawn),0.3%
NC(=O)c1cccc(-c2ccnc3c2CC(C(=O)NCc2ccc(F)c(F)c2)O3)c1 (stereo not drawn),-9.5%
FC(F)(F)Oc1ccccc1C(c1nnnn1C1CCCC1)N1CCN(C/C=C/c2ccccc2)CC1 (stereo not drawn),-2.5%
C=C1NN(Cc2ccc(OC)cc2)C(=O)N1c1ccccc1,-1.1%
CC1(C(=O)NCCc2ccccc2)Cc2c(-c3cccc(C(F)(F)F)c3)ccnc2O1 (stereo not drawn),-2.9%
CN(C)Cc1csc(NC(=O)Nc2cccc(C(F)(F)F)c2)n1,-0.5%
CC(C)NC(=O)C1(C)Cc2c(-c3ccc(C(N)=O)cc3)ccnc2O1 (stereo not drawn),-29%
Cc1cc2c(cc1C)-c1nnnn1C(N1CCCC1)C(=O)N2 (stereo not drawn),1.3%
CCN1CCN(C(C(=O)NC2CCCCC2)C2CC2)CC1 (stereo not drawn),-1.5%
COc1cccc(CNC(=S)Nc2ccc3c(c2)c(=O)n(C)n3Cc2ccccc2)c1,4.8%
CCCCNC(=O)C(NC(=O)c1ccc(C)cc1)C(=O)c1ccccc1 (stereo not drawn),1.0%
CCc1nc2ccc(C(=O)Nc3cccc(OCC(=O)N(C)C)c3)cn2c1N(CCC(C)C)CCN(C)C,-1.3%
O=C(NCC1CCCCC1)c1[nH]c(C(F)(F)F)nc1-c1ccccc1,-2.5%
COc1ccc(C(O)c2nc(-c3ccc(N(C)C)cc3)cs2)cc1 (stereo not drawn),3.1%
# Carrying on:
SMILES,ClpP mod
O=C(NCc1ccc(F)cc1)c1cc(C2CCCN(C(=O)c3ccc4c(c3)CCO4)C2)on1 (stereo not drawn),0.1%
CCCc1c(-c2cccc(F)c2)ncn1CCc1ccccc1OC,-3.5%
CCc1nc2c(OCCC3CCCCC3)cccn2c1N(C)C(=O)c1ccco1,-4.0%
Cn1c(=O)c2cc(NC(=S)NC3CCCCC3)ccc2n1C/C=C/c1ccccc1,5.0%
COc1ccc(S(=O)(=O)N2CCN(c3nc(-c4ccccc4)nc4ccccc34)CC2)cc1,u
COc1ccccc1-c1cc(NC(C)=O)c2ncc(-c3cccc(C(F)(F)F)c3)n2c1,4.7%
COc1ccc(C2=Nc3ccccc3N(C(=O)c3ccncc3)C2C(=O)NC(C)(C)C)cc1 (stereo not drawn),-9.7%
Cn1nccc1-c1ccc(C(=O)NCc2ccc(Cl)cc2)c2occc12,4.6%
CN(C)c1ccc(C=O)c(Cl)c1,-4.2%
CC(C)C[C@@H](CN1CCCC1CN1C(=S)NC[C@@H]1Cc1ccccc1)N1C[C@H](Cc2ccc(O)cc2)N(CC2CCCCC2)C1=S (stereo partly drawn),-1.3%
O=C(NCc1cccc(Cl)c1)c1ccc(-n2cncn2)c2ccoc12,-23%
COc1ccc(/C=C/c2cnccn2)cc1OC,1.1%
O=C(NCCO)c1cccc(-c2cccc3nccn23)c1,u
COc1ccc(C(=O)N2CCC(C)(C(=O)NS(=O)(=O)C3CC3)C2)cc1 (stereo not drawn),1.2%
C(=C\c1c[nH]c2ccccc12)/c1ccc2ccccc2n1,u
O=C(NCc1ccc(Cl)c(Cl)c1)c1cc(C2CCCCN2C(=O)c2cccs2)on1 (stereo not drawn),-1.0%
Cc1ccccc1C1N=C2Oc3ccccc3C=C2C(=O)N1 (stereo not drawn),4.8%
CN(C)Cc1csc(NC(=O)Nc2cccc(Cl)c2)n1,0.4%
OCC1CSC(=S)N1Cc1ccccc1 (stereo not drawn),-1.1%
COC(=O)[C@@]12C[C@@H](CC(=O)N3CCC(c4ccccc4)CC3)C(=O)N(Cc3cccc4ccccc34)C1=CCC(C)(C)C2,-3.8%
C=CCn1c(SCCC)nc2ccccc2c1=O,-1.7%
OC(CSc1nnnn1-c1ccccc1)Cn1c2ccccc2c2ccccc21 (stereo not drawn),u
Cc1cc(Br)cn2c(Cc3cccc(F)c3)c(-c3ccc(C#N)cc3)nc12,-7.5%
CCOC(=O)C(=C1Nc2ccccc2N1)n1c(-c2ccco2)nc2ccccc21,-21%
C=C1C=C(C)n2ncc(C(=O)Nc3cccc(C(=O)Nc4cccc(C(F)(F)F)c4)c3)c2N1,-11%
CCC(CC)C(=O)N(C)c1c(C)nc2c(OCC(=O)C(C)(C)C)cccn12,-4.3%
O=C(CC[C@H]1O[C@@H](n2ccc(=O)[nH]c2=O)[C@H](O)[C@@H]1O)N[C@H](Cc1ccccc1)C(=O)NCc1ccccc1,-0.9%
CCCNC(=O)C1(C)CCCN(C(=O)c2c(F)ccc(C)c2F)C1 (stereo not drawn),-1.4%
Cc1ccccc1NC(=O)COc1ccccc1C(=O)Nc1ccccc1,-25%
CCCCCCCCN1C(=O)[C@H](CC(=O)N2CCN(C(=O)C3CC3)CC2)C[C@@]2(C(=O)OCC)CCCC=C12,1.6%
CCCCNC(=O)C(NC(=O)c1ccc2c(c1)OCO2)C(=O)c1ccccc1 (stereo not drawn),3.4%
CC(C)NC(=O)C1(C)CSCC(=O)N1CCCN1CCOCC1 (stereo not drawn),-0.7%
COc1cc(C)c2ccccc2n1,-16%
Cc1ccc2c(C(=O)CNc3nccs3)c(C)[nH]c2c1,-1.9%
CC1(C(=O)NS(=O)(=O)c2cccc(C#N)c2)CCN1C(=O)C1(c2ccc(Cl)cc2)CC1 (stereo not drawn),2.5%
C=Nc1ccc(/C=C/c2ccnc3ccccc23)cc1,-0.2%
CNc1cc(-c2cccc(N(C)C)c2)ncn1,-9.2%
CCC(=O)N1Cc2cc(C(=O)NCCOC)nc(-c3cccc(-c4ccc(C#N)cc4)c3)c2[C@H]1CCO,-1.1%
CCCCCCCCCC[n+]1cccc(Br)c1,-1.3%
O=C(Nc1ccc(F)cc1)C(c1ccccc1)N1CCN(c2cccc(C(F)(F)F)n2)CC1 (stereo not drawn),u
O=C(Nc1cccc(C(F)(F)F)c1)Nc1ccc2nc([C@@H]3O[C@H](CO)[C@@H](O)[C@H](O)[C@H]3O)[nH]c2c1,-1.4%
COc1cccc(-c2cnc3c(NC=O)cc(-c4ccc(S(C)(=O)=O)cc4)cn23)c1,u
COc1cc(NC(=O)[C@H]2O[C@@H](n3ccc(N)nc3=O)[C@H](O)[C@@H]2O)cc(OC)c1OC,0.8%
CC(C)(C)n1nnnc1C(c1ccccc1)N1CCN(c2ccccc2)CC1 (stereo not drawn),-2.0%
Cc1ccc(C(=O)N2CCCC2(C)C(=O)NCC(C)C)cc1F (stereo not drawn),-1.4%
CCc1ccc2[nH]c(=O)c(CN(Cc3ccccc3)Cc3nnnn3C(C)(C)C)cc2c1,-15%
Cn1nc(C(C)(C)C)cc1C(=O)N1CCCC(c2cc(C(=O)Nc3ccccc3Cl)no2)C1 (stereo not drawn),1.8%
CCCN1CNc2c(c(=O)[nH]c(=S)n2CCc2ccccc2OC)C1,-0.1%
CCc1nc2ccc(C(=O)NCCNC(C)=O)cn2c1N(C)CCCc1ccccc1,-7.9%
CNc1cnc(-c2cc(OC)c(OC)c(OC)c2)cn1,-26%
Cc1nc2ccc(C(=O)OC(C)C(=O)c3c(C)[nH]c4ccccc34)cc2nc1C (stereo not drawn),-1.2%
COC(=O)C[C@@H]1CC[C@@H](NC(=O)NC2CCCC2)[C@@H](CO)O1,-0.7%
O=C1NC[C@@H](CCCCN2C[C@H](Cc3ccccc3)N(CCc3ccc(O)cc3)C(=O)C2=O)N(CCc2ccccc2)C1=O,1.2%

# Among those listed so far, 13 have a Cl atom:
SMILES,ClpP mod
O=C(Nc1ccc(F)c(Cl)c1)c1ccc2sc([C@H]3C[C@H](O)[C@@H](CO)O3)nc2c1,-0.6%
COc1ccccc1Cc1c(-c2ccc(OC)c(OC)c2)nc2c(Cl)cc(C(F)(F)F)cn12,u
NCCCN(Cc1ccc(Cl)c(Cl)c1)c1ccccn1,-21%
O=C(C[C@H]1CC[C@H]2[C@@H](COC[C@@H](O)CN2Cc2cc(F)ccc2F)O1)NCc1ccc(Cl)cc1,-1.0%
CCc1nc2c(OCC(=O)c3ccc(Cl)cc3Cl)cccn2c1N(C=O)Cc1ccc(OC)cc1,-6.5%
CC(=O)Nc1cccc(-c2cc(NC=O)c3ncc(-c4ccc(F)c(Cl)c4)n3c2)c1,u
Cn1nccc1-c1ccc(C(=O)NCc2ccc(Cl)cc2)c2occc12,4.6%
CN(C)c1ccc(C=O)c(Cl)c1,-4.2%
O=C(NCc1cccc(Cl)c1)c1ccc(-n2cncn2)c2ccoc12,-23%
O=C(NCc1ccc(Cl)c(Cl)c1)c1cc(C2CCCCN2C(=O)c2cccs2)on1 (stereo not drawn),-1.0%
CN(C)Cc1csc(NC(=O)Nc2cccc(Cl)c2)n1,0.4%
CC1(C(=O)NS(=O)(=O)c2cccc(C#N)c2)CCN1C(=O)C1(c2ccc(Cl)cc2)CC1 (stereo not drawn),2.5%
Cn1nc(C(C)(C)C)cc1C(=O)N1CCCC(c2cc(C(=O)Nc3ccccc3Cl)no2)C1 (stereo not drawn),1.8%
